Screening data (PubChem)
MLL AF4-AF9 inh = MLL-AF4/AF9 protein interaction inhibition | actives 0.47% (n = 350,000) | AlphaScreen, biotin-AF4 peptide binding to FLAG-AF9 | AID 651704 | inhibition, % at 10 µM | P42568;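 active = every replicate reaching a set inhibition limit, whatever the replicate mean, cut at about 25% in these data; inconclusive = mean inhibition reaches that limit but some replicates miss it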;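 note: 0% = plate neutral control median and 100% = total signal loss; the record names both 10 and 1 µM as test concentration; the first replicate is given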
Target sequence (P42568 whole entry, looked up): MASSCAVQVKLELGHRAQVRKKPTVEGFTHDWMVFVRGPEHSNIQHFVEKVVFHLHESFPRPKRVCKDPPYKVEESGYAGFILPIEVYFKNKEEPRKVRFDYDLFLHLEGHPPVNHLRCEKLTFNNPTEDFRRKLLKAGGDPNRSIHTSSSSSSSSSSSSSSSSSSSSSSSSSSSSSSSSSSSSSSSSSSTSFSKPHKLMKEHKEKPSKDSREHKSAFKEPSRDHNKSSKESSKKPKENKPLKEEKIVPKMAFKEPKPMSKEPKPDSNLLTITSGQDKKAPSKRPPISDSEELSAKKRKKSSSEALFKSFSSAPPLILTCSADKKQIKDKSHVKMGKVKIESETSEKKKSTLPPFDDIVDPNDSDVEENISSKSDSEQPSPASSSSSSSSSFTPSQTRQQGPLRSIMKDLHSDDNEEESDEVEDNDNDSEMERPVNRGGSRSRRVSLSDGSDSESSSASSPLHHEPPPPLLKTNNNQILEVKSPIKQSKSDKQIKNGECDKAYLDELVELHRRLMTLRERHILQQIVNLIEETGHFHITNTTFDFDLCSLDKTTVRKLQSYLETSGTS
FGF22 binding = binders of recombinant human FGF22 by thermal shift; Q9HCT0; SYPRO orange fluorescence; percent of sucrose octasulfate shift, DMSO zero; calls only at 9.99 µM; actives 1.5% (n = 340,000);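 active = melting point raised past a set limit in the mean and every replicate; inconclusive = no clear call; three in four hits are not shown here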
Target sequence (Q9HCT0 whole entry, looked up): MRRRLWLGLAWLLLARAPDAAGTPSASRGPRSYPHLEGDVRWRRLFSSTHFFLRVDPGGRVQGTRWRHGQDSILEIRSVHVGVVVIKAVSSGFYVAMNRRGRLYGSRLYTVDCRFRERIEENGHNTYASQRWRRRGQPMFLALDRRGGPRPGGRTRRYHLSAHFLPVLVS
rRNA inh HTS = inhibits bacterial ribosomal RNA function over humanized ribosomes. E. coli WT GFP vs humanized-ribosome RFP mutants, fluorescence, 24 h; hits give low values; DMSO median 0, no signal -100. GFP signal change (wild-type ribosome), % (test concentration not listed). actives 1.6% (n = 350,000). AID 720706;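 active = significant combined selectivity score with lowered wild-type GFP, culture density cut under 30%, mutant RFP and density less affected; inactive = any of these conditions unmet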; note: one replicate is shown; some compounds called inactive have numbers as strong as hits
rRNA inh HTS OD600 = further read-out of rRNA inh HTS, marked with its call; OD600 change, %; measured here: OD600 growth;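 optical density of the mix in the first replicate; 0 = DMSO median and -100 = no signal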
rRNA inh HTS RFP = further read-out of rRNA inh HTS, marked with its call; RFP signal change, %; measured here: RFP humanized mutant strains;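 first replicate; 0 = DMSO median and -100 = no signal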
Numbers without * were called inactive; i = inactive; ? = inconclusive; + = active, no number; & = joins results of further samples; ! = repeats disagree.

MLL AF4-AF9 inh | FGF22 binding | rRNA inh HTS | rRNA inh HTS OD600 | rRNA inh HTS RFP | compound
-3.9 | i | 1 | -3 | 1.2 | CO[C@@H]1CN(C)C(=O)c2cc(NS(C)(=O)=O)ccc2OC[C@@H](C)N(C)C[C@H]1C
-1.2 | i | -4 | -7 | 1.4 | C[C@H]1CN([C@@H](C)CO)S(=O)(=O)c2ccc(-c3ccccc3F)cc2O[C@@H]1CN(C)C
-23 | i | -1 | -2 | -3.2 | O=C(N[C@@H]1CC[C@@H](CC(=O)N2CCc3ccccc3C2)O[C@@H]1CO)C1CCOCC1
1.2 | i | 10 | 9 | -0.8 | CC(C)CC1C(=O)N(Cc2cn(CCC3OCCO3)nn2)CCS(=O)(=O)N1Cc1ccc(-c2ccc(Cl)c(Cl)c2)cc1 (centres undefined)
-8.7 | i | 0 | -1 | -0.7 | C[C@@H]1CCCCO[C@@H](CN(C)S(=O)(=O)c2cn(C)cn2)[C@H](C)CN([C@@H](C)CO)C(=O)c2cc(NC(=O)C3CCCCC3)ccc2O1
4.2 | i | -3 | -6 | 1.5 | COCC(=O)Nc1ccc2c(c1)OC[C@H](C)N(Cc1ccccc1)C[C@@H](C)[C@H](OC)CN(C)C2=O
-0.7&-2.2 | i | 10&4 | 5&4 | 0.4&0.6 | CNC[C@@H]1OCc2cnnn2CCCC(=O)N([C@H](C)CO)C[C@H]1C
0.0 | i | 2 | -2 | -1.7 | CCNC(=O)C[C@H]1CC[C@@H]2[C@H](COc3ccc(NC(=O)Cc4cccs4)cc3C(=O)N2C)O1
-0.5 | i | -3 | -5 | 4.9 | CCS(=O)(=O)N1[C@H](CO)[C@@H](c2ccc(-c3cccc(F)c3)cc2)[C@@H]1C#N
-2.5 | i | -1 | -4 | -0.5 | COc1cccc(NC(=O)N(C)C[C@@H]2Oc3ncc(C#Cc4cccnc4)cc3C(=O)N([C@H](C)CO)C[C@H]2C)c1
-2.0 | i | 5 | 2 | 0.9 | CC=Cc1ccc2n(c1=O)C[C@H]1[C@H](CO)[C@@H](C(=O)NCCC)N(Cc3ccccn3)[C@@H]21 (mixture of isomers)
7.6 | i | -62 | -81 | -18 | OC(c1ccc(F)cc1)c1ncc(-c2cccc(C(F)(F)F)c2)[nH]1 (centres undefined)
-2.4 | i | 1 | 10 | 0.1 | C[C@H]1CN([C@@H](C)CO)C(=O)c2cc(C3=CCCCC3)cnc2O[C@H]1CN(C)C(=O)c1ccccc1
-1.6 | i | -2 | 6 | 1.5 | O=C(CN1CCOCC1)N[C@@H]1CC[C@H](CCNC(=O)C2CCCCC2)O[C@H]1CO
0.6 | i | -1 | -1 | -2.3 | CCS(=O)(=O)Nc1ccc2c(c1)C(=O)N(C)[C@@H]1CC[C@@H](CC(=O)NC)O[C@@H]1CO2
? | i | -6 | -1 | -0.2 | CCOC(=O)N(C)C[C@@H]1OCc2ccccc2-c2c(n(C)c3ccccc23)C(=O)N([C@H](C)CO)C[C@@H]1C
2.5 | i | 2 | 7 | -0.3 | Cc1noc(C)c1NC(=O)N(C)C[C@@H]1OCCCC[C@H](C)Oc2ccc(NS(=O)(=O)c3c(C)noc3C)cc2C(=O)N([C@@H](C)CO)C[C@@H]1C
-3.0 | i | 3 | 6 | -0.8 | C[C@H]1CN([C@@H](C)CO)C(=O)Cc2cc(NC(=O)CCN3CCOCC3)ccc2O[C@H]1CN(C)C(=O)NC1CCCCC1
0.0 | i | 4 | 11 | -1.0 | Cc1ccc(S(=O)(=O)N(C)C[C@@H]2OCCCC[C@H](C)Oc3ccc(NC(=O)Nc4ccc(C(F)(F)F)cc4)cc3C(=O)N([C@@H](C)CO)C[C@@H]2C)cc1
7.2 | i | -4 | -26 | 0.0 | OC(c1ccco1)c1nc(-c2ccc(F)c(Cl)c2)cs1 (centres undefined)
4.7 | i | -3 | -2 | -3.0 | C[C@@H]1CCCCO[C@@H](CN(C)S(=O)(=O)c2cccs2)[C@H](C)CN([C@@H](C)CO)C(=O)c2cc(NC(=O)Nc3ccc4c(c3)OCO4)ccc2O1
-0.3 | i | 15 | -32 | -8.7 | O=C(O)c1ccc(Oc2nc3ccccc3s2)cc1
-0.6 | i | -1 | -4 | 1.2 | CC(C)NC(=O)N(C)C[C@H]1OCCCC[C@@H](C)Oc2ccc(NS(=O)(=O)c3ccccc3)cc2C(=O)N([C@@H](C)CO)C[C@@H]1C
-2.4 | i | -1 | 0 | 0.2 | O=S(=O)(N[C@H]1CC[C@@H](CCn2cc(C3(O)CCCC3)nn2)O[C@H]1CO)c1ccc(F)cc1
2.5 | i | -6 | -11 | -3.8 | COc1ccc(NC(=O)Nc2ccc3c(c2)C(=O)N([C@@H](C)CO)C[C@H](C)[C@@H](CN(C)Cc2ccc(Cl)c(Cl)c2)OCCCC[C@@H](C)O3)cc1
0.4&-0.5 | i | 16&-1 | 17&-6 | 2.9&-0.4 | C[C@@H]1CN([C@H](C)CO)C(=O)CCCn2nncc2CO[C@H]1CN(C)C(=O)NC1CCCCC1
0.2 | i | -3 | -7 | -2.2 | COCCNC(=O)[C@H]1[C@H](CO)[C@H]2Cn3c(ccc(-c4ccccc4)c3=O)[C@@H]1N2C
-0.9 | i | -2 | -3 | -0.9 | Cc1ccc(S(=O)(=O)N[C@@H]2CC[C@H](CCn3cc(C4(O)CCCC4)nn3)O[C@H]2CO)cc1
5.2 | i | 1 | 4 | 1.5 | C[C@@H]1CN([C@H](C)CO)C(=O)c2cc(NC(=O)CCCN(C)C)ccc2O[C@@H]1CN(C)Cc1ccc(C(F)(F)F)cc1
-3.4 | i | 1 | 6 | -1.8 | CC(C)C(=O)Nc1ccc2c(c1)C(=O)N(C)[C@H]1CC[C@H](CC(=O)NCC3CC3)O[C@H]1CO2

Of the compounds above, 3 have a Cl atom:
MLL AF4-AF9 inh | FGF22 binding | rRNA inh HTS | rRNA inh HTS OD600 | rRNA inh HTS RFP | compound
1.2 | i | 10 | 9 | -0.8 | CC(C)CC1C(=O)N(Cc2cn(CCC3OCCO3)nn2)CCS(=O)(=O)N1Cc1ccc(-c2ccc(Cl)c(Cl)c2)cc1 (centres undefined)
7.2 | i | -4 | -26 | 0.0 | OC(c1ccco1)c1nc(-c2ccc(F)c(Cl)c2)cs1 (centres undefined)
2.5 | i | -6 | -11 | -3.8 | COc1ccc(NC(=O)Nc2ccc3c(c2)C(=O)N([C@@H](C)CO)C[C@H](C)[C@@H](CN(C)Cc2ccc(Cl)c(Cl)c2)OCCCC[C@@H](C)O3)cc1

More results.
MLL AF4-AF9 inh | FGF22 binding | rRNA inh HTS | rRNA inh HTS OD600 | rRNA inh HTS RFP | compound
1.8&-0.4 | +! | -60&-54 | -76&-78 | -17&-14 | O=C(Nc1cc(Cl)cc(Cl)c1)N[C@@H]1CC[C@@H](CCNS(=O)(=O)c2cccc(F)c2)O[C@@H]1CO
-2.5 | i | -3 | -6 | 1.3 | COc1ccc(NC(=O)Nc2cccc3c2O[C@@H](CN(C)C)[C@H](C)CN([C@@H](C)CO)C3=O)cc1
7.5 | i | 0 | 0 | 1.3 | COc1ccc(CN(C)C[C@@H]2Oc3c(NC(=O)c4nc5ccccc5s4)cccc3C(=O)N([C@@H](C)CO)C[C@H]2C)cc1
-1.8 | i | 1 | 3 | -2.5 | CN1CCN(C(=O)C[C@H]2CC[C@H]3[C@@H](COC[C@@H](O)CN3Cc3ccc4c(c3)OCO4)O2)CC1
-1.0 | i | 1 | 0 | -3.4 | O=C(C[C@@H]1CC[C@@H]2[C@H](COC[C@H](O)CN2C(=O)c2ccc3c(c2)OCO3)O1)NCCN1CCCCC1
0.5 | i | -6 | -22 | 1.6 | CO[C@H](CN(C)C(=O)c1cc(Cl)cc(Cl)c1)[C@@H](C)CN(C(=O)Nc1ccc(F)cc1)[C@@H](C)CO
-3.0 | i | 0 | -3 | 0.8 | N#C[C@@H]1[C@@H](c2ccc(C#Cc3ccccc3F)cc2)[C@@H](CO)N1C(=O)C1CCCCC1
0.0 | i | 3 | 6 | 3.6 | COc1ccc(S(=O)(=O)Nc2cccc3c2O[C@H](CN(C)Cc2ccc(Oc4ccccc4)cc2)[C@H](C)CN([C@@H](C)CO)C3=O)cc1
6.1 | i | -8 | -17 | 0.1 | COc1ccc(CN(C)C[C@@H]2Oc3c(NC(=O)C4CCCCC4)cccc3C(=O)N([C@H](C)CO)C[C@H]2C)cc1
-1.1 | i | 2 | 3 | -0.2 | O=C(C[C@@H]1CC[C@H](NC(=O)c2ccc(F)cc2)[C@@H](CO)O1)NCCc1ccncc1
-0.5&-2.7 | i | -4 | 8 | -1.0 | Cc1ccccc1CN(C)C[C@H]1OCc2cnnn2CCCC(=O)N([C@@H](C)CO)C[C@@H]1C
-2.1 | i | 6 | 18 | -1.5 | CCCC#Cc1cnc2c(c1)C(=O)N([C@H](C)CO)C[C@@H](C)[C@H](CN(C)C)O2
2.3 | i | -2 | -21 | -1.7 | C[C@@H]1CN([C@@H](C)CO)C(=O)c2cc(NC(=O)Nc3ccc(F)cc3)ccc2O[C@@H]1CN(C)S(=O)(=O)c1ccccc1
56* | i | -9 | 6 | 15 | CN(C)c1ccc(/C=C2/C[N+](C)(C)C/C(=C/c3ccc(N(C)C)cc3)C2=O)cc1
-2.8 | i | 5 | 7 | -4.2 | CC(=O)N(C)C[C@H]1Oc2cc(C#CCN(C)C)ccc2S(=O)(=O)N([C@H](C)CO)C[C@H]1C
1.5 | i | -2 | -7 | 2.4 | C[C@H](CO)N1C[C@H](C)[C@@H](CN(C)Cc2ccc(C(F)(F)F)cc2)Oc2ccc(NC(=O)C3CCCCC3)cc2CC1=O
-3.1 | i | 2 | 1 | 2.8 | CC(C)CC#Cc1cnc2c(c1)C(=O)N([C@H](C)CO)C[C@@H](C)[C@@H](CN(C)S(=O)(=O)c1ccccc1)O2
-1.5 | i | 12 | 23 | 0.2 | O=C1CC2(CCCC2)C(=O)N1CN1CCN(S(=O)(=O)c2cc(F)ccc2F)CC1
5.6 | i | -3 | -8 | 9.5 | COc1cccc(C(=O)Nc2ccc3c(c2)OC[C@@H](C)N(C(=O)C2CCCCC2)C[C@@H](C)[C@H](OC)CN(C)C3=O)c1
-2.0 | i | 3 | 5 | -2.4 | CO[C@@H]1CN(C)C(=O)c2cc(NC(=O)C3CCOCC3)ccc2OC[C@@H](C)N(Cc2nccs2)C[C@@H]1C
1.0 | i | 0 | 1 | -1.7 | COc1ccc2c3c(n(C)c2c1)[C@@H](CO)N(C(=O)c1ccc(F)cc1)CC31CN(C(C)=O)C1
-6.5 | i | 9 | 18 | 3.5 | CC(=O)N1CCCCN2[C@H](CO)[C@H](c3ccc(-c4ccncc4)cc3)[C@H]2C1
-2.0 | i | 8 | 6 | -0.6 | C[C@H]1CN([C@@H](C)CO)C(=O)c2cc(-c3cncnc3)cnc2O[C@@H]1CN(C)C(=O)Cc1ccccc1
2.3 | i | -2 | -4 | 2.9 | Cc1noc(C)c1NC(=O)Nc1ccc2c(c1)C(=O)N([C@H](C)CO)C[C@@H](C)[C@@H](CN(C)C(=O)C1CCCCC1)OCCCC[C@@H](C)O2
2.0 | i | -7 | -6 | 5.7 | O=C(C[C@H]1C[C@@H]2c3cc(NC(=O)Nc4ccccc4)ccc3O[C@@H]2[C@@H](CO)O1)NCc1cccc(F)c1
-4.6 | i | -4 | 9 | 5.7 | O=C(C[C@H]1CC[C@@H]2[C@H](COC[C@H](O)CN2C(=O)c2ccccc2)O1)Nc1ccccc1
-0.5 | i | 3 | -4 | 1.1 | COCC(=O)Nc1ccc2c(c1)[C@@H]1C[C@@H](CC(=O)NCc3ccccc3)O[C@@H](CO)[C@@H]1O2
1.1 | i | -6 | -5 | 0.0 | CCOC(=O)[C@]12CCCC=C1N(Cc1ccco1)C(=O)[C@H](CC(=O)NCCC(C)C)C2
-2.1 | i | -2 | 9 | -4.0 | COc1ccc(NC(=O)Nc2cccc3c2O[C@H](CN(C)C(=O)NC2CCCCC2)[C@@H](C)CN([C@@H](C)CO)C3=O)cc1
-6.4 | i | -1 | 6 | -1.2 | CO[C@@H]1CN(C)C(=O)c2ccc(NC(=O)NC(C)C)cc2OC[C@@H](C)N(S(C)(=O)=O)C[C@H]1C
-2.7 | i | 8 | 19 | -2.4 | COc1cc(NC(=O)C(C)(C)C)c(C(=O)OCC(=O)Nc2cc(C)on2)cc1OC
-1.6 | i | 5 | 12 | 0.0 | CCCNC(=O)N1C[C@@H](O)COC[C@@H]2O[C@@H](CC(=O)NCCCN3CCOCC3)CC[C@H]21
4.3 | i | -14 | -16 | 0.7 | C[C@H]1CN([C@@H](C)CO)S(=O)(=O)c2ccc(-c3ccccc3)cc2O[C@H]1CN(C)C(=O)C1CCCCC1

2 compounds from above, showing only rRNA inh HTS RFP and rRNA inh HTS.
structure,rRNA inh HTS RFP,rRNA inh HTS
CCOC(=O)N(C)C[C@@H]1OCc2ccccc2-c2c(n(C)c3ccccc23)C(=O)N([C@H](C)CO)C[C@@H]1C,-0.2,-6
Cc1noc(C)c1NC(=O)N(C)C[C@@H]1OCCCC[C@H](C)Oc2ccc(NS(=O)(=O)c3c(C)noc3C)cc2C(=O)N([C@@H](C)CO)C[C@@H]1C,-0.3,2

The list is partial; the hit share may differ from the screen's.
